# From PubChem
# EPAC2 ant val – validation of human EPAC2 antagonists | Q8WZA2 | EPAC2 Rap1B BODIPY-GDP exchange, fluorescence | Potency, µM (highest dose often 112 µM), for inactives: top-dose activity, negative = inhibition, usual class: inhibitors | actives 1.7% (n = 16,000) | AID 1645886; active means well fitted inhibition curve with a large enough effect; inconclusive means small, poorly fitted or top-dose-only effect; inactive means no such curve, though single readings can be large or run the other way;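 further: 100% = activation by cAMP agonist control; nearly all actives have a fitted effect of over 40% in size; the record reuses the description of the EPAC1 agonist screen; inactives centre near -10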
# Target sequence (Q8WZA2 whole entry, looked up): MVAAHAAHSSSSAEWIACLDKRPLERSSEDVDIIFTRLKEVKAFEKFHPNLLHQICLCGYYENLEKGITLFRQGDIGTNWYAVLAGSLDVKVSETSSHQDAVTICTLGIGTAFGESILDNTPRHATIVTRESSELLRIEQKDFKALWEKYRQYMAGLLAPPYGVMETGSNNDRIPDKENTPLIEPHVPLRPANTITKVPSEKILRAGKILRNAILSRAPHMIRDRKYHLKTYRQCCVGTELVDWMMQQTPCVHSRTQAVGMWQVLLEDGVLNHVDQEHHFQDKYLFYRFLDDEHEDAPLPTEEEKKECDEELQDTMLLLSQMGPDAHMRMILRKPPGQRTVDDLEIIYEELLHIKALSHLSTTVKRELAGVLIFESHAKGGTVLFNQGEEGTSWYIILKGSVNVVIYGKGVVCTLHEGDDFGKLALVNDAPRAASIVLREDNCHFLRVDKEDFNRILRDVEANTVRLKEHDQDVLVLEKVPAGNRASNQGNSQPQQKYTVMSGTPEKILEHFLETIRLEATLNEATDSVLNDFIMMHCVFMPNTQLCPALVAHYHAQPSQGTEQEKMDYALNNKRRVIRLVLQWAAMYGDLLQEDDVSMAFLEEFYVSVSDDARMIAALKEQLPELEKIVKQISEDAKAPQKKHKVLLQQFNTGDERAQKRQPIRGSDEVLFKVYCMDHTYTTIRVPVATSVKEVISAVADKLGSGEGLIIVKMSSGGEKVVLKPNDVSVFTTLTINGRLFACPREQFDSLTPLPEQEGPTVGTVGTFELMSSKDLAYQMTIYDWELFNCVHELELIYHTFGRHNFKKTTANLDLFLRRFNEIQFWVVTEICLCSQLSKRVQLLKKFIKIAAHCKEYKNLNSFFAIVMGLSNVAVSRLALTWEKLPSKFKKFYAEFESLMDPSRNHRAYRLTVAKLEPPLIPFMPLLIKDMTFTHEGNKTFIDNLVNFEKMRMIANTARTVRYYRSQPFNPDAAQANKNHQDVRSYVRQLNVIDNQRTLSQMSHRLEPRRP
#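 Fluorescent exchange read-out: 100 nM EPAC2 with 250 nM RAP1B–BODIPY-GDP and 50 uM GDP; BODIPY-GDP release lowers fluorescence. Read at 480/540 nm every 5 min for 30 min at room temperature; normalized to 6.5 mM cAMP.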
# The depositor's hits bear a star; ? = inconclusive; & = joins results of further samples; [ ] = another dose, or the depositor's remark. Potency means the concentration at half of the fitted maximal effect.
SMILES,EPAC2 ant val
OC1(c2ccc3c(c2)CN(Cc2ccccn2)CCO3)CCN(c2ccccc2F)CC1,-12.1%
COc1ccnc(CS(=O)c2nc3cc(OC(F)F)ccc3[nH]2)c1OC (centres undefined),42.1%
CS(=O)(=O)N1CCC2(CCN(Cc3nccs3)CC2)CC1,-4.0%
O=c1c(-c2ccccc2)nc2cnc(N3CCOCC3)nc2n1C[C@H]1CCCO1,-0.1%
COC(=O)[C@H](CC(C)C)N(Cc1ccccc1)S(=O)(=O)N(Cc1ccccc1)[C@@H](CC(C)C)C(=O)OC,?
N#CC(c1ccc(Cl)cc1)c1c(Cl)cc(-n2ncc(=O)[nH]c2=O)cc1Cl (centres undefined),1.7%
Cc1cc(C)n(-c2cccc(C(=O)NCC3Cc4cccc(-c5cccnc5)c4O3)c2)n1 (centres undefined),-3.2%
C=C1C([C@@]2(C)C(OC(C)=O)CC(=O)O[C@@](C)(COC(C)=O)C2CC(=O)OC)C(OC=O)C(OC(=O)C(O)C(C)CC)[C@]2(C)C(c3ccoc3)CC(=O)C12O (some centres undefined),-19.5%
COc1ccc(-n2c(=O)c(-c3cccs3)nc3cnc(N4CCNCC4)nc32)cc1,5.4%
N#Cc1cccc(-c2nccc(NCc3ccccc3)n2)c1,?
C[C@H]1C[C@@H]2[C@H]([C@@H](O)C[C@@]3(C)[C@H]2CC[C@]3(O)C(=O)COC(=O)CCC(=O)O)[C@@]2(C)C=CC(=O)C=C12,-4.5%
O=C(O)C(Cc1cc(I)c(O)c(I)c1)c1ccccc1 (centres undefined),-11.4%
Cc1nc(C)n(CC(=O)N2CCOc3ccc(CN4CCN(C)C[C@@H]4c4ccccc4)cc3C2)n1,?
Cc1noc(C)c1-c1nccc(NC2CC2)n1,-12.0%
O=C1NC(=O)/C(=C/c2ccc3c(c2)OC(F)(F)O3)S1,-27.7%
O=C(O)C1=CCNCC1,-16.1%&4.6%&-22.8%&-8.2%
COc1c(O)c2c(=O)cc(OC)c3c4c(OC)cc(=O)c5c(O)c(OC)c(C[C@@H](C)OC(=O)c6ccccc6)c(c(c1C[C@@H](C)OC(=O)Oc1ccc(O)cc1)c23)c54,-17.0%[5.85 µM]
Cc1cnc(C)c(-c2cccc3c2OC(CNC(=O)/C=C/c2ccncc2)C3)n1 (centres undefined),-7.6%
CC1(C)[C@H](C(=O)O)N2C(=O)C[C@H]2S1(=O)=O,-18.9%
Cc1c(C(=O)NCC(C)(C)N2CCOCC2)cnn1-c1ncc2c(n1)-c1ccccc1CCC2,-11.2%
CCCCN1CCCCC1C(=O)Nc1c(C)cccc1C (centres undefined),-10.6%
COc1ccc2cc1Oc1cc3c(cc1OC)CC[N+](C)(C)[C@H]3Cc1ccc(cc1)Oc1c(OC)c(OC)cc3c1[C@@H](C2)[N+](C)(C)CC3,0.0%
CN(C)c1ccc(-c2cncnc2NCc2ccccc2)cc1,?
COC(=O)CC1C(C)(C)C(OC(C)=O)C2CC3=C4CC(=O)OC(c5ccoc5)[C@]4(C)CCC3[C@@]1(C)C2=O (some centres undefined),-17.0%
CCC(C)C(=O)OC1CC(C)C=C2C=CC(C)C(CCC3CC(O)CC(=O)O3)C21 (centres undefined),1.8%
CCc1cc(C(=O)NCCN2Cc3ccccc3OC(c3ccsc3)C2)n(C)n1 (centres undefined),-41.8%
CC[C@@H](C)CCCCC(=O)N[C@H](CCN)C(=O)N[C@@H](C(=O)N[C@H](CCN)C(=O)N[C@@H]1CCNC(=O)C([C@@H](C)O)NC(=O)[C@@H](CCN)NC(=O)[C@@H](CCN)NC(=O)[C@@H](CC(C)C)NC(=O)[C@@H](Cc2ccccc2)NC(=O)[C@@H](CCN)NC1=O)[C@@H](C)O (some centres undefined),-17.4%
O=C1C=CC2=C3c4cc(O)c(O)cc4C[C@@]3(O)COC2=C1,17.6%
O=C1CCC[C@@H]2[C@@H](Cc3ccccc3)[C@@H](Nc3ccccc3)C[C@@H]3CCN1[C@@H]32,?
O=C(O)c1cn(-c2ccc(F)cc2)c2cc(N3CCNCC3)c(F)cc2c1=O,-8.8%
Cn1cccc1C(=O)N1CCC2(CCCN(C(=O)Nc3ccccc3)C2)CC1,-20.8%
COc1cc2c3cc1Oc1cc(ccc1O)CC1c4c(cc(OC)c(O)c4Oc4ccc(cc4)CC3N(C)CC2)CC[N+]1(C)C (centres undefined),4.3%
O=S1(=O)CCOCCCN1Cc1ccccc1,-15.6%
CC12CCC3C(CC3(C)C)C(C)(CCC1=O)O2 (centres undefined),-4.9%
O=C(CCc1cccnc1)NCC1Cc2cccc(-c3ncccn3)c2O1 (centres undefined),3.1%
O=C(c1cnccn1)N1CCC2(CCCN(Cc3nccs3)C2)CC1,-10.6%
CC(C)C(C)(C)C(C)(C)C(C)(C)S,38.7%[activator][239 µM]
OC[C@H]1O[C@@H](n2cnc3c(N[C@H]4C[C@H]5CC[C@@H]4C5)ncnc32)[C@H](O)[C@@H]1O,-12.9%
Cc1cnc(-n2ncc(C(=O)NCCc3ccccn3)c2C)nc1-c1ccc(F)cc1,-3.9%
N=C(N)c1ccc(OCCCCCOc2ccc(C(=N)N)cc2)cc1 (tested in a mixture with another compound),13.7%
OCCN1CCN(Cc2ccc3c(c2)CN(Cc2ccc4ccccc4c2)CCO3)CC1,-23.1%
COc1ccc(/C=C/C(=O)OCCC(C)C)cc1,-20.0%
Cc1ccc2ccccc2[n+]1CCCCI,?
O=c1c(O)c(-c2ccc(O)cc2)oc2cc(O)cc(O)c12,?
Cc1cccc(C)c1NC(=O)c1ccccc1C(=O)O,-9.3%
COc1ccccc1N1CCN(CCN(C(=O)c2ccc(I)cc2)c2ccccn2)CC1,?
COc1cc(CN2CCc3nnc(C(NS(C)(=O)=O)C(C)C)n3CC2)ccc1F (centres undefined),-2.6%
Cc1cnc(-n2ncc(C(=O)NCCc3ccncc3)c2-c2cccs2)nc1-c1ccc(F)cc1,-24.4%
Cc1nc2cc(NC(=O)[C@@H]3C[C@@H](Sc4ccccn4)CN3Cc3ccccc3F)ccc2s1,-18.5%
CC(C)NCC(O)COc1ccccc1-n1cccc1 (centres undefined),-1.6%
O=S(=O)(c1ccccc1)N1CCC2(CCN(c3ccncc3)CC2)CC1,-14.6%
CCNc1ncc2nc(C)c(=O)n(CCC#N)c2n1,-2.4%
O=S1(=O)CCO[C@H]2Cc3ccccc3[C@H]2N1Cc1ccccc1F,?
c1ccc2sc(SN3CCOCC3)nc2c1,-19.3%
Cn1cccc1C(=O)N1CCC2(CCCN(Cc3nccs3)C2)CC1,-19.6%
O=S1(=O)CCOCCCN1Cc1ccc(Cl)cc1,-2.3%
COc1ccccc1-c1ccc(C(=O)N(C)CC2COCCO2)c(N2CCN(c3ccccc3F)CC2)n1 (centres undefined),-13.8%
COc1ccccc1N1CCN(CCCCNC(=O)c2ccc3ccccc3c2)CC1,-26.4%
CN(C(=O)c1cnn(-c2nccc(-c3ccccc3C(F)(F)F)n2)c1C1CC1)C1CCOC1 (centres undefined),-18.6%
O=C(O)COCCN1CCN(C(c2ccccc2)c2ccc(Cl)cc2)CC1 (centres undefined),8.4%
# (more compounds)
SMILES,EPAC2 ant val
Cc1cc(NC(=O)C2=C(O)c3ccccc3S(=O)(=O)N2C)no1,29.9%
O=C(O)c1ccc(NC(=O)[C@H](Cc2ccc(O)cc2)NC(=O)c2ccccc2)cc1,?
O=C(Oc1ccccc1)N1CCC2(CC1)CN(c1ccccn1)C2,?
COc1ccc2[nH]cc(CCNc3nc(-c4cccnc4)nc4ccccc34)c2c1,-39.2%
O=C(N/N=C/c1ccccc1O)c1ccncc1,-1.3%
O=c1cc(-c2cccc(O)c2)oc2c(O)c(O)ccc12,-24.7%
O=S(=O)(c1ccccc1)N1CCC2(CC1)CN(c1ccccn1)C2,-34.0%
COc1ccc(-c2cn(Cc3ccc(C)cc3)nn2)cc1,-11.4%
CCOC(=O)[C@H](CCc1ccccc1)N[C@@H](C)C(=O)N1CCC[C@H]1C(=O)O,-1.8%
CC1(C)OC2C(CO)OC(n3cnc4c(=O)[nH]cnc43)C2O1 (centres undefined),-4.0%
c1ccc2c(NC3CC3)nc(-c3ccoc3)nc2c1,-19.0%
O=Cc1cc2ccccc2cc1O,-8.2%
Cc1cnc(SCc2ccccn2)nc1C1CCCN(C(=O)c2noc3c2CCCC3)C1 (centres undefined),?
CCc1cn([C@H]2C[C@H](O)[C@@H](CO)O2)c(=O)[nH]c1=O,18.4%
OCCNCCCOc1cccc(Cl)c1Cl,-16.0%
COc1ccc([C@H]2c3cc(OC)c(OC)cc3C[C@@H](C)[C@@H]2C)cc1OC,?
COc1ccccc1-c1ccc2ncnc(NC3CC3)c2c1,-16.8%
O=C(c1csnn1)N1CCC[C@@]2(CCN(C(c3ccccc3)c3ccccc3)C2)C1,?
Nc1ccc2c3c(cccc13)C(=O)NC2=O,-83.3%
OCC1OC(Oc2cccc3cccnc23)C(O)C(O)C1O (centres undefined),-6.9%
COc1cccc(C2(CC(=O)N3CCCCC3CO)CC(=O)N(C)C2=O)c1 (centres undefined),-11.2%
COc1ccc(-n2c(=O)c(-c3cccs3)nc3cnc(N4CCOCC4)nc32)cc1,-26.1%
c1cncc(-c2ccc3ncnc(N4CCNCC4)c3c2)c1,-9.4%
CCNc1ncc2nc(C)c(=O)n(CCOC)c2n1,2.1%
Cc1ccccc1N=C1Nc2ccc(Cl)cc2N[C@]12C[C@H]1CCCC(=O)N3CC[C@@H](C2)[C@@H]13,26.3%
NCCC(=O)N[C@@H](Cc1cnc[nH]1)C(=O)O,-3.9%
CN(Cc1ccon1)C(=O)c1cnn(-c2nccc(-c3ccc4c(c3)OCO4)n2)c1C1CC1,-17.1%
CCCCCC1C(=O)CCC1CC(=O)O (centres undefined),-8.9%
O=C(c1cc(C(F)(F)F)cc(C(F)(F)F)c1)N1CCC2(CC1)CN(Cc1ccccc1)C2,-14.2%
COc1ccccc1CNc1ncnc2ccc(-c3cccnc3)cc12,-17.8%
COc1cccc(CCNc2ncnc3sc(C(=O)N4CCN(C)CC4)c(C)c23)c1,3.3%
COc1ccccc1-c1cc2c(c(OC)c1)OCCN(CCC(C)c1ccc(C)o1)C2 (centres undefined),-8.0%
CSc1nccc(-c2cc(Cl)c3c(c2)CC(CNC(=O)c2ccc(C)nc2)O3)n1 (centres undefined),?
Cc1c2oc3c(C)ccc(C(=O)N[C@@H]4C(=O)N[C@H](C(C)C)C(=O)N5CCC[C@H]5C(=O)N(C)CC(=O)N(C)[C@@H](C(C)C)C(=O)O[C@@H]4C)c3nc-2c(C(=O)N[C@@H]2C(=O)N[C@H](C(C)C)C(=O)N3CCC[C@H]3C(=O)N(C)CC(=O)N(C)[C@@H](C(C)C)C(=O)O[C@@H]2C)c(N)c1=O,-3.5%
COc1cc(CN2c3ccc(Br)cc3C(=O)CS2(=O)=O)cc(OC)c1,-5.6%
Oc1cc2c(cc1O)C(c1ccccc1)CNCC2 (centres undefined),2.9%&-5.5%&-2.9%
Cc1cc(OI)c(C(C)C)cc1-c1cc(C(C)C)c(OI)cc1C,-19.4%
COc1ccc(CN([C@H](CO)CC(C)C)S(=O)(=O)N(Cc2ccccc2)[C@H](CO)CC(C)C)cc1,?
COc1cccc(Cn2cc(-c3cccc(C(F)(F)F)c3)nn2)c1,?
COC(=O)[C@@H]1CCCN1Cc1ccc2c(c1)CN(Cc1ccc(OC)c(C)c1)CCO2,-18.1%

# In the list so far, eleven contain a COOH group.
SMILES,EPAC2 ant val
C[C@H]1C[C@@H]2[C@H]([C@@H](O)C[C@@]3(C)[C@H]2CC[C@]3(O)C(=O)COC(=O)CCC(=O)O)[C@@]2(C)C=CC(=O)C=C12,-4.5%
O=C(O)C(Cc1cc(I)c(O)c(I)c1)c1ccccc1 (centres undefined),-11.4%
O=C(O)C1=CCNCC1,-16.1%&4.6%&-22.8%&-8.2%
CC1(C)[C@H](C(=O)O)N2C(=O)C[C@H]2S1(=O)=O,-18.9%
O=C(O)c1cn(-c2ccc(F)cc2)c2cc(N3CCNCC3)c(F)cc2c1=O,-8.8%
Cc1cccc(C)c1NC(=O)c1ccccc1C(=O)O,-9.3%
O=C(O)COCCN1CCN(C(c2ccccc2)c2ccc(Cl)cc2)CC1 (centres undefined),8.4%
O=C(O)c1ccc(NC(=O)[C@H](Cc2ccc(O)cc2)NC(=O)c2ccccc2)cc1,?
CCOC(=O)[C@H](CCc1ccccc1)N[C@@H](C)C(=O)N1CCC[C@H]1C(=O)O,-1.8%
NCCC(=O)N[C@@H](Cc1cnc[nH]1)C(=O)O,-3.9%
CCCCCC1C(=O)CCC1CC(=O)O (centres undefined),-8.9%

# More entries follow.
SMILES,EPAC2 ant val
Cc1noc(C)c1-c1cc(NC2CCNCC2)ncn1,0.2%
O=c1[nH]c(=O)n([C@H]2C[C@H](O)[C@@H](CO)O2)cc1C(F)(F)F,-7.9%
OC[C@H]1O[C@H](n2cnc3c(NC4CCCC4)nc(Cl)nc32)[C@@H](O)[C@@H]1O,-30.0%
Cn1cc(-c2nc3cncnc3n(CCN)c2=O)c2ccccc21,-3.5%
COc1ccccc1-c1ccnc(-n2ncc(C(=O)N(C)C(C)c3ccon3)c2C2CC2)n1 (centres undefined),2.6%
N[C@@H](C(=O)O)c1ccc(C(=O)O)cc1,-10.9%&-17.6%
COc1ccc(CN2Cc3ccccc3OC(c3ccccc3OC)C2)cc1O (centres undefined),?
CC(C)(C)n1nc(-c2ccc(Cl)cc2)c2c(N)ncnc21,-30.3%
CN1CCN(c2ncc3nc(-c4cccs4)c(=O)n(CCC#N)c3n2)CC1,-1.4%
C=CCN1CC[C@@H](O)C(=C)S1(=O)=O,0.5%
COc1cccc(-c2ccc3ncnc(NC4CC4)c3c2)c1,-12.0%
COCC(=O)N1CCC2(CCN(Cc3ccncc3)CC2)CC1,-11.5%
c1cc(CN2CCCCC2)cc(OCCCNc2nc3ccccc3s2)c1,7.6%&-19.4%&-6.5%&-17.8%

# The list is partial; rates above refer to the full screens.
